Compound activity deposited in PubChem by National Center for Advancing Translational Sciences (NCATS).
AmpC nodet inh – inhibitors of E. coli AmpC beta-lactamase without detergent. AmpC nitrocefin hydrolysis, absorbance 480 nm, no detergent; potencies from a single point are estimates. Potency, µM (top dose mostly 28.7 µM), inactives show top-dose activity change, negative = inhibition. 71,000 compounds, 1.8% hits. P00811; active = falling curve, for most hits resting on a single point; inconclusive = weak or doubtful change; inactive = flat or rising curve; further: % of control where 0% means no effect; about half of the hits show no inhibition at the top dose; a quarter of the inactives give rising signals
Target sequence (P00811 whole entry, looked up): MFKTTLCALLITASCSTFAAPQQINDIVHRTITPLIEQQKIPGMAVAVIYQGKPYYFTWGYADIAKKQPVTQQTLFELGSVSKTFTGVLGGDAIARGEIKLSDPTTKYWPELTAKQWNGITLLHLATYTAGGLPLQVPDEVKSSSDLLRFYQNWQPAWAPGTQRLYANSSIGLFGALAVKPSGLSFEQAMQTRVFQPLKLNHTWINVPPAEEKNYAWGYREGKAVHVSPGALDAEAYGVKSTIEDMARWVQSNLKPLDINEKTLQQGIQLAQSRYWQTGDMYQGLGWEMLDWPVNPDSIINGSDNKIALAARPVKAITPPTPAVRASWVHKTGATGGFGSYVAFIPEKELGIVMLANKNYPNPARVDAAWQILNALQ
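AmpC in 20 mM phosphate buffer pH 7.0 was preincubated 15 min at room temperature with compounds. Nitrocefin (800 uM stock) was then added and hydrolysis followed at 480 nm every 20 s for 4 min.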
The depositor's hits bear a star; u = inconclusive; & = joins results of further samples; [ ] = dose if it differs, or a comment. Potency means the concentration at half of the fitted maximal effect. The list is partial; count on the stated rates, not on these rows.

molecule | AmpC nodet inh
CCCC1(C(=O)OC)NC(c2ccco2)C2C(=O)N(c3ccc(C)cc3)C(=O)C21 (centres undefined) | 18%
COc1ccc(N=[N+]([O-])c2ccc(OC)cc2)cc1 | -1%
c1ccc(-c2noc(-c3ccncc3)n2)nc1 | 2%
Cc1cccc2sc(NC(=O)CN(C)S(=O)(=O)c3cccs3)nc12 | -25%
Cc1ccc(S(=O)(=O)N2CCCCC2)cc1C(=O)c1nccn1C | 3%
c1cc(-c2nnc3n2CCC3)[nH]n1 | 2%
C[C@@]12CC[C@@H]3[C@H](CCC4=CC(=O)CC[C@]43C)[C@@H]1CC[C@@H]2C(=O)COS(=O)(=O)c1ccc(Br)cc1 | 10%[5.75 µM]
CC[C@@H](CO)Nc1nc(NCc2ccccc2)c2ncn(C(C)C)c2n1 | 29%
COc1ccc(N2CCN(C(=O)Cn3c(=O)[nH]c4ccsc4c3=O)CC2)cc1 | 8%
O=c1nc(N2CCOCC2)ccn1Cc1ccc(Br)cc1 | 6%
Cc1cccc(/N=C/c2c(O)cc(C)oc2=O)n1 | 2%
CC1Cc2nc(SCC(=O)Nc3nccs3)n(C)c(=O)c2S1 (centres undefined) | -7%
OC1(c2ccc(Br)cc2)CCNCC1 | -10%
CN(C)CCNC(=O)c1ccccc1-c1ccccc1 | -1%
COCC(=O)N1CCC[C@@]2(CCN(Cc3cc(C(F)(F)F)cc(C(F)(F)F)c3)C2)C1 | 104%
COC(=O)C1(C)NC(c2cccs2)C2C(=O)N(c3ccccc3F)C(=O)C21 (centres undefined) | 14%
O=C(CN1CCN(c2ccc(Cl)cc2)CC1)c1ccc2c(c1)OCO2 | -7%
CCC(=O)c1ccc(OCC(O)CN2CCN(c3cccc(C(F)(F)F)c3)CC2)cc1 (centres undefined) | 60%
CCC(NC(=O)NCCCn1ccnc1)(C(F)(F)F)C(F)(F)F | 6%
COC(=O)c1ccc(C(=S)N2CCOCC2)cc1 | 8%
CC(=O)Cc1ccccc1OCC(=O)O | 2%
CCOC(=O)c1sc(NCC2CCCO2)nc1C (centres undefined) | 8%
CCOc1cc(-c2c(C#N)c(N)nc3c2CCCC3)ccc1O | 17%
Cc1ccccc1Cn1cc(/C=N/n2cnnc2)c2ccccc21 | 115%
CCn1c(=O)c2c3c(sc2n(C)c1=O)CCC3 | 0%
COc1cccc(C(c2sc3ncnn3c2O)N2CC(C)OC(C)C2)c1 (centres undefined) | -3%
COc1ccc2[nH]c(=O)c(CN(CC3CCCO3)C(=O)Nc3ccccc3)cc2c1 (centres undefined) | 56%
O=C(CSc1nc2ccccc2c(=O)n1Cc1ccco1)NCc1ccco1 | -15%
CC1CCCCN1CCCNC(=O)C1CCN(c2nc3ccccc3o2)CC1 (centres undefined) | 16%
Cn1c(=O)c2c(nc(OCc3cccnc3)n2Cc2c(F)cccc2Cl)n(C)c1=O | 72%
CCOC(=O)c1ccc(NC(=O)c2ccc(C)c(S(=O)(=O)N3CCOCC3)c2)cc1 | 80%
COc1ccc(N2C(=O)CC(N3CCN(c4ccccc4F)CC3)C2=O)cc1 (centres undefined) | 3%
Cc1nc2ncnn2c(N2CCN(C(=O)Cc3cccs3)CC2)c1C | 14%
COCCn1c(C)cc(C(=O)CSc2ccc(NC(C)=O)cc2)c1C | 30%
CCOc1ccc(/C(O)=C2/C(=O)C(=O)N(CCOCCO)C2c2ccccc2)cc1 (centres undefined) | -8%
CCOC(=O)N1CCN(CC(=O)Nc2c(C(=O)OC)[nH]c3ccccc23)CC1 | 40%
Cc1cnc(C)c(N2CCC(C(=O)NCc3cccs3)CC2)n1 | 18%
CC(C)(C)C(=O)/C=C(\N)c1ccccn1 | -5%
CCC(=O)Nc1nc2ccc(NC(C)=O)cc2s1 | -1%
O=C(COc1ccccc1)NCCc1nc2ccccc2[nH]1 | -6%
CC1CN(Cc2nc3c(c(=O)n(C)c(=O)n3C)n2CCCc2ccccc2)CC(C)O1 (centres undefined) | 123%
CCOc1ccccc1NC(=O)C1CCN(S(=O)(=O)c2c(C)noc2C)CC1 | 7%
Cc1cc(NC(=O)c2cc(C)on2)n(-c2ccccc2)n1 | -6%
COc1ccc(-c2coc3ccc(O[C@@H]4O[C@@H](COC(C)=O)[C@@H](OC(C)=O)[C@@H](OC(C)=O)[C@H]4OC(C)=O)c(OC(C)=O)c3c2=O)cc1 | 71%
CCOC(=O)Nc1nc(-c2ccccc2)c(C)s1 | 4%[5.75 µM]
CC(=O)OCc1ccco1 | -9%
C=CCn1c(SCC(=O)Nc2cc(NC(C)=O)ccc2OC)nnc1-c1cccnc1 | 6%
C=CCN1CCC2(C)c3cc(O)ccc3C[C@H]1[C@H]2C | 4%&1%&-5%
CCOC(=O)N1CCN(C(=O)C2CCN(c3ncnc4c3sc3cccc(F)c34)CC2)CC1 | 149%
N#Cc1c(-c2ccco2)cc(C2CC2)nc1SCC(=O)c1ccccc1 | u

Going on with the list:
molecule | AmpC nodet inh
Cc1cc(=O)[nH]c(SCc2nc3ncccn3c2Br)n1 | -10%
N#Cc1ccc(COC(=O)c2ccc3c(=O)[nH]c(CN4CCOCC4)nc3c2)cc1 | 77%
CCN(CC)S(=O)(=O)c1ccc2[nH]cc(C(=O)NCCN3CCCCC3C)c(=O)c2c1 (centres undefined) | 1%
COC(=O)c1ccccc1NC(=O)CN1CCC(NC(=O)c2ccccc2C)CC1 | 85%
Cc1ccc(-c2cc(C(F)(F)F)nn2-c2ccc(S(N)(=O)=O)cc2)cc1 | 20%
COc1ccc(-n2c(Cc3cccn3C)nnc2SCC(=O)Nc2ccc(F)cc2)cc1 | 95%
Cc1oc2cc(OC(C)C(=O)O)ccc2c(=O)c1Oc1ccccc1 (centres undefined) | -2%
C=CCn1c(SCc2nc3ccccc3c(=O)[nH]2)nnc1-c1cc2cc(Cl)ccc2o1 | 43%
COc1ccc(NC(=O)c2ccc(COc3ccccc3Br)o2)cc1OC | 74%
COC(=O)N1CCC2(CC1)CN(C(=O)Nc1cccc(F)c1)C2 | 15%
COc1ccc(-c2nc(CS(=O)CC(=O)NCc3ccc4c(c3)OCO4)c(C)o2)cc1 (centres undefined) | 96%
O=c1c2ccccc2[se]n1-c1ccccc1 | -3%[12.8 µM]
COC(=O)[C@@]1(Cc2ccc(F)cc2)[C@H]2c3cc(C(=O)N4CCCC4)n(Cc4ccccn4)c3C[C@H]2CN1C(=O)c1ccccc1 | 160%
CCc1ccc(NC(=O)Cn2c(=O)oc3cc(S(=O)(=O)N4CCOCC4)ccc32)cc1 | 28%
CCc1nc2ccccc2n(CC)c1=O | -3%
COc1ccc(C(O)c2coc3ccc(O)c(CN(C)C)c23)cc1 (centres undefined) | -4%
COC(=O)CS | -6%
COc1ccccc1-c1c(C)nn2c(N3CCCCCC3)cc(C)nc12 | 150%
C=CCn1c(O)c(C(C)=Nc2ccc(N(CC)CC)cc2)c(=O)[nH]c1=O | 4%
CC(=O)Nc1ccc(S(=O)(=O)Nc2ccc(S(=O)(=O)N3CCCCCC3)cc2)cc1 | -5%
CN(C)[C@H]1C(=O)C(C(=O)NCN2CCCC2)=C(O)[C@]2(O)C(=O)C3=C(O)c4c(O)cccc4[C@](C)(O)[C@H]3C[C@H]12 | 1%[5.75 µM]
CCN(CC)S(=O)(=O)c1ccc2nnn(OCC(=O)Nc3cccc(C#N)c3)c2c1 | -13%
CCOC(=O)CSc1nnc(CNC(=O)c2ccc(OC)cc2)n1-c1ccc(OC)cc1 | 43%
O=C(CNS(=O)(=O)c1ccc(C(=O)N2CCCCC2)cc1)N1CCCCC1 | 14%
CC(C)CCN(C)C1CCN(S(=O)(=O)c2cccc(C(F)(F)F)c2)CC1 | 9%

Ordered by molecular weight (smallest number first): some entries from above.
molecule | AmpC nodet inh
COC(=O)CS | -6%
CC(=O)OCc1ccco1 | -9%
CCc1nc2ccccc2n(CC)c1=O | -3%
C=CCN1CCC2(C)c3cc(O)ccc3C[C@H]1[C@H]2C | 4%&1%&-5%
O=c1c2ccccc2[se]n1-c1ccccc1 | -3%[12.8 µM]
COC(=O)N1CCC2(CC1)CN(C(=O)Nc1cccc(F)c1)C2 | 15%
COc1ccc(C(O)c2coc3ccc(O)c(CN(C)C)c23)cc1 (centres undefined) | -4%
Cc1oc2cc(OC(C)C(=O)O)ccc2c(=O)c1Oc1ccccc1 (centres undefined) | -2%
Cc1cc(=O)[nH]c(SCc2nc3ncccn3c2Br)n1 | -10%
C=CCn1c(O)c(C(C)=Nc2ccc(N(CC)CC)cc2)c(=O)[nH]c1=O | 4%
N#Cc1c(-c2ccco2)cc(C2CC2)nc1SCC(=O)c1ccccc1 | u
Cc1ccc(-c2cc(C(F)(F)F)nn2-c2ccc(S(N)(=O)=O)cc2)cc1 | 20%
CC(C)CCN(C)C1CCN(S(=O)(=O)c2cccc(C(F)(F)F)c2)CC1 | 9%
O=C(CNS(=O)(=O)c1ccc(C(=O)N2CCCCC2)cc1)N1CCCCC1 | 14%
N#Cc1ccc(COC(=O)c2ccc3c(=O)[nH]c(CN4CCOCC4)nc3c2)cc1 | 77%
COC(=O)c1ccccc1NC(=O)CN1CCC(NC(=O)c2ccccc2C)CC1 | 85%
CCN(CC)S(=O)(=O)c1ccc2nnn(OCC(=O)Nc3cccc(C#N)c3)c2c1 | -13%
COc1ccc(NC(=O)c2ccc(COc3ccccc3Br)o2)cc1OC | 74%
C=CCn1c(SCC(=O)Nc2cc(NC(C)=O)ccc2OC)nnc1-c1cccnc1 | 6%
COc1ccc(-c2nc(CS(=O)CC(=O)NCc3ccc4c(c3)OCO4)c(C)o2)cc1 (centres undefined) | 96%
CCc1ccc(NC(=O)Cn2c(=O)oc3cc(S(=O)(=O)N4CCOCC4)ccc32)cc1 | 28%
CCN(CC)S(=O)(=O)c1ccc2[nH]cc(C(=O)NCCN3CCCCC3C)c(=O)c2c1 (centres undefined) | 1%
C=CCn1c(SCc2nc3ccccc3c(=O)[nH]2)nnc1-c1cc2cc(Cl)ccc2o1 | 43%
CC(=O)Nc1ccc(S(=O)(=O)Nc2ccc(S(=O)(=O)N3CCCCCC3)cc2)cc1 | -5%
CCOC(=O)CSc1nnc(CNC(=O)c2ccc(OC)cc2)n1-c1ccc(OC)cc1 | 43%
CN(C)[C@H]1C(=O)C(C(=O)NCN2CCCC2)=C(O)[C@]2(O)C(=O)C3=C(O)c4c(O)cccc4[C@](C)(O)[C@H]3C[C@H]12 | 1%[5.75 µM]
COC(=O)[C@@]1(Cc2ccc(F)cc2)[C@H]2c3cc(C(=O)N4CCCC4)n(Cc4ccccn4)c3C[C@H]2CN1C(=O)c1ccccc1 | 160%

The results go on:
molecule | AmpC nodet inh
O=C(C1CCN(S(=O)(=O)c2ccc(-n3cnnn3)cc2)CC1)N1CCN(c2ccccc2)CC1 | 87%
C=CCn1c(N2CCCC2)nc2c1c(=O)[nH]c(=O)n2C | -3%
Cc1csc2nc(=O)c3ccccc3n12 | 6%
COc1ccc(-n2c(=O)c(-c3ccc(F)c(F)c3)nc3cncnc32)cc1 | -6%
Cc1cccnc1NC(=O)c1ccc2nc(N)sc2c1 | -10%
CC1CN=C(c2cccn2Cc2ccc(F)cc2Cl)O1 (centres undefined) | 10%
CCCn1c(C)nc2c(N(CCN(CC)CC)CCN(CC)CC)nc(C)nc21 | 6%
CCOC(=O)CN(C(=O)CSc1nnc(COc2ccc(OC)cc2)n1C)c1ccccc1 | 83%
COc1ccc(N2C(=O)C3CCCN3C2c2cccs2)cc1 (centres undefined) | -1%
Cc1ccc(Cn2nnc3c(=O)[nH]c(C4CCN(S(=O)(=O)c5ccccc5)CC4)nc32)cc1 | 64%
CC1(C)CC(=O)C=C(NCC2CCCO2)C1 (centres undefined) | -6%
Cc1ccc(NC(=O)C2C3CC4OC(=O)C2C4C3)cc1Cl (centres undefined) | 4%
CN1CCN(c2nc(-c3ccc4c(c3)OCO4)nc3ccccc23)CC1 | 63%
O=C(O)CCn1c(C(=O)O)cc2sccc21 | -6%
CCOC(=O)Cn1c(=NC(=O)CSC(C)=O)sc2ccccc21 | 10%
Cc1ccc2[nH]c3c(c2c1)CN(C(=O)CN1CCN(c2ccccc2)CC1)CC3 | 125%
O=C(O)CC12CSc3[nH]c(=O)sc3C1c1ccccc1OC2=O (centres undefined) | -2%
O=C(CN(C(=O)CNS(=O)(=O)c1ccccc1)c1ccc2c(c1)OCCO2)NC1CCCCC1 | 35%
CC(C)(CN1CCCCC1)NS(=O)(=O)c1ccc(Cl)cc1 | -10%
Cc1ccc2cc(C#N)c(NCCNC(=O)C3CCC3)nc2c1C | 22%
Cc1ccccc1-c1cc(N2CCNCC2)ncn1 | 15%
CCCCn1c(SCC(=O)N2CCOCC2)nnc1-c1cccs1 | 22%
Cc1c(C#N)c2ccccc2n1CC(=O)N1CCc2ccccc2C1 | -2%
Cc1ccc(NC(=O)OCC(F)(F)C(F)F)cc1NC(=O)OCC(F)(F)C(F)F | -12%
Clc1ccccc1N1CCN(c2ncnc3nc[nH]c23)CC1 | 33%
O=S(=O)(c1ccc2nc(COc3ccc(Cl)cc3Cl)[nH]c2c1)N1CCOCC1 | 17%
O=S(=O)(c1cccc(C(F)(F)F)c1)N1CCN(c2nnnn2-c2ccccc2)CC1 | 34%
N#Cc1c2n(c(=O)[nH]c1=O)CCCCC2 | -3%
O=C(CNS(=O)(=O)c1ccccc1)N1CCN(c2ccccc2)CC1 | 7%
